Screens (PubChem BioAssay)
B2AR ag = activates human beta-2 adrenergic receptor causing internalization. P07550. Am2.2-beta2AR cells, FAP receptor internalization, flow cytometry; reference of the scale not given here. response, % (concentration not given with the values). 340,000 tested, 0.43% active. AID 504454;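 active = response above a set limit, near 3 SD of response in nonfluorescent compounds, cut at about 42% in these data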;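 note: stock transfer was 100 nL into about 11 µL; a reference agonist was the positive control; negative values mostly stem from fluorescent compounds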
ALR H2O2 inh = inhibitors of human sulfhydryl oxidase ALR; purified ALR, DTT oxidation, H2O2 HRP-luminol luminescence; P55789; 290,000 tested, 3.8% active; inhibition, % (no concentration beside the values); AID 485317;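 active = mean and each replicate at 75% or more; inconclusive = only one of the two met; inactive = neither met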;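 note: stock transfer was 7.5 nL into about 7.5 µL; 0% = neutral wells and 100% = wells with inactivated enzyme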
HNF4A DNA FP = change in binding of human HNF4 alpha to DNA. 360,000 tested, 0.3% active. HNF4a-FITC DNA binding, fluorescence polarization, 1 h. AID 1224865. activity change, % at 10 µM; in the data active = activity change above about 30%, passing the limit was not always enough;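 note: controls were the assay level and a saturating level of protein; the project sought stronger binding though the title names inhibitors; some compounds called inactive have numbers as strong as hits; positive values seem to mean higher polarization but the record does not say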
RanGTP-Impb inh = disruptors of Ran-importin-beta complex formation – biochemical, FRET, CFP-Ran, YFP-importin-beta, homogeneous, primary screen. cell-free CFP-Ran/YFP-importin-beta FRET ratio. inhibition, % (test concentration not listed). 300,000 tested, 1.1% active. AID 2216;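 active = most replicates above 15%; inconclusive = exactly half above 15%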;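 note: 0% = DMSO wells and 100% = Ran loaded with GDP instead of GTP; wells of about 40 µL received 100 nL stock; the first replicate is given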
Calb FLC = affects C. albicans growth with fluconazole; 300,000 tested, 0.57% active; C. albicans CaCi-2 (fluconazole-resistant clinical isolate) + fluconazole, Alamar Blue growth, 48 h; growth inhibition, % (test concentration not listed); AID 1979;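 active = most replicates above 75%; inconclusive = exactly half above 75%; inactive = most below 75%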;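 note: all wells also contain fluconazole at 8 µg/ml as a sub-toxic cotreatment; 0% = median of DMSO wells and 100% = median of geldanamycin control wells; wells of about 8 µL received 7.5 nL stock; the first replicate is given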
LANA-H2B inh = blocks KSHV LANA binding to histone H2A/H2B | 320,000 tested, 0.6% active | inhibition, % (no concentration beside the values) | cell-free LANA-H2A/H2B peptide, fluorescence polarization | Q9QR71; in the data active = inhibition mostly above about 10%, no sharp cut-off; inactive = mostly below about 6.7%;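 note: stock transfer was 7.5 nL into about 10 µL; 0% = median of vehicle wells and 100% = median of positive control wells; one replicate is shown; the record names a cut of 25% in any replicate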
Target sequence (Q9QR71 whole entry, looked up): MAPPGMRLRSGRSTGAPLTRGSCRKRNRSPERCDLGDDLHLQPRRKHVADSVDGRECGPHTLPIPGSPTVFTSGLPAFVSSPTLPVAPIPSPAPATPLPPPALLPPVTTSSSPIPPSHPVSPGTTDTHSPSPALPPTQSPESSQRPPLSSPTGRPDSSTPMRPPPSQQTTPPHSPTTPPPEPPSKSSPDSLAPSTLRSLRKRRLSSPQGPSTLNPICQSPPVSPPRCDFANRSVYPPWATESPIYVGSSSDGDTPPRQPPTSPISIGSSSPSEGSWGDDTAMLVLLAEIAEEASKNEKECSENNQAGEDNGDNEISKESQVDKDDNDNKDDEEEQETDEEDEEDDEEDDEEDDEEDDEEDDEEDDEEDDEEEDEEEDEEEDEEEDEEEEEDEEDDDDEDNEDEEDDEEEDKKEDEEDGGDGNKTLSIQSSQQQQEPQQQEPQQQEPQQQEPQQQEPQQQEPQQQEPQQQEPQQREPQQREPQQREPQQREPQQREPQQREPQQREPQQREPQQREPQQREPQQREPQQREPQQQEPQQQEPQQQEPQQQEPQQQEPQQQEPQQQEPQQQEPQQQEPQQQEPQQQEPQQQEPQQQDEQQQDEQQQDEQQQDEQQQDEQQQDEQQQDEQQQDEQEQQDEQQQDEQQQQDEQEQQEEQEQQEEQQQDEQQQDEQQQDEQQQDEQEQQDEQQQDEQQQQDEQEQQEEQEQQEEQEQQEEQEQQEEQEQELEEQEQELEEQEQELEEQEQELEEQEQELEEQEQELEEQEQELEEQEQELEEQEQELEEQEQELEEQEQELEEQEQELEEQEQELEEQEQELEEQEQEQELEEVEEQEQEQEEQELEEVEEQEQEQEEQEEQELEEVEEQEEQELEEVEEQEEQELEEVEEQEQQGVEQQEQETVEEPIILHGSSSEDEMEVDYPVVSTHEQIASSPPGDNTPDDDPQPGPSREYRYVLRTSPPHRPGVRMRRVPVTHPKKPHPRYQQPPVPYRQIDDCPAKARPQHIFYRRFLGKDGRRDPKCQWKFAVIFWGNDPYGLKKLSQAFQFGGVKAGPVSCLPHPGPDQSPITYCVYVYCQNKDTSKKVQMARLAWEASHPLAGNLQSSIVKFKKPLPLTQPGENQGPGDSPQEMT
Vif TR-FRET = HIV-1 Vif–A3G interaction blockers – biochemical, TR-FRET, GST-Vif 1-94, biotin-A3G peptide, dose response retest, primary screen (AID 1117319); TR-FRET GST-Vif / biotin-A3G peptide binding; higher % means a stronger effect; test concentration not given here; strong numbers were not always called active; one-dose inhibition, %; IC50 in µM for titrated hits; 260,000 tested, 0.57% active;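 active = above the screen mean plus three standard deviations and confirmed in dose response; inconclusive = results disagree or hit not tested in dose response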;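 note: Vif residues 1-94 fused to GST binding biotinylated APOBEC3G peptide 110-148; 0% = full assay without inhibitor and 100% = GST in place of GST-Vif; retest series ran down from 100 µM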
* marks the source's active call; other numbers are inactive results; ? = inconclusive; / = not tested or not shown; + = active, no number; & = joins results of further samples.

smiles,B2AR ag,ALR H2O2 inh,HNF4A DNA FP,RanGTP-Impb inh,Calb FLC,LANA-H2B inh,Vif TR-FRET
O=C(c1ccc(Br)s1)N1CCN(c2ccccn2)CC1,-9.1,15.2,-2.5,2.5,23.4,-1.9,/
COC(=O)c1oc2ccc(OC)cc2c1N,18.8,2.1,0.1,-1.8,-4.1,-6.7,?
C/C(=N/OCO/N=C(\C)c1ccccc1F)c1ccccc1F,-3.4,-1.0,3.4,3.4,12.5,-3.6,-6.8%
O=C(CSc1nnc(-c2ccc(F)cc2)c2ccccc12)NCC1CCCO1 (centres undefined),-18.5,-11.0,2.9,8.8,?,2.1,-6.1%
C/C(N)=C(/C#N)C(=O)COC(=O)CNS(=O)(=O)c1c(F)cccc1F,-3.3,3.3,3.7,/,13.3,0.7,/
Cc1ccc(N(C)S(=O)(=O)c2ccc(C)cc2)cc1,-3.8,-3.8,1.3,-2.3,-4.1,-2.6,-6.4%
CCOc1ccc(NC(=O)CCCCn2c(=O)[nH]c3ccsc3c2=O)cc1,3.8,-11.1,0.2,3.2,-2.2,2.9,-13.7%
O=C(O)CN1C(=O)/C(=C\c2cccc(OCc3ccccc3F)c2)SC1=S,0.5,41.6,0.5,-2.0,-1.3,-0.5,1.5%
Cc1cccc(NC(=O)c2c(C)nc3ccccn23)c1,-1.4,-6.5,1.8,-0.4,1.9,6.1,-0.4%
Cc1ccc(NC(=O)COC(=O)C2CCC2)cc1S(=O)(=O)N1CCCCC1,5.3,4.3,-1.0,/,-1.0,0.9,3.6%
Cc1[nH]c(C)c(S(=O)(=O)N(C)Cc2ccccc2)c1C(=O)N1CCCCC1,-2.6,-8.9,-5.1,-0.7,5.2,8.3,-1.9%
CCCCS(=O)(=O)N1CCN(S(=O)(=O)c2cccs2)CC1,0.3,-38.8,-2.7,2.5,0.4,-0.5,/
COc1cccc(CN2CCC(C(=O)Nc3ccc(Oc4cccnc4)cc3)CC2)c1,-14.4,/,0.0,-5.0,3.5,/,/
COC(=O)c1ccc(NC(=O)COc2ccc(S(=O)(=O)NC(C)C)cc2)cc1,2.0,-4.0,-1.3,-0.3,-8.2,4.7,?
CCN(CCS(=O)(=O)c1ccc(Br)cc1)Cc1nc2ccccc2c(=O)[nH]1,-4.7,26.2,3.9,/,/,-2.4,/
CCC1CCc2sc(C(=O)N(C)CC(=O)Nc3cccc(OC)c3)cc2C1 (centres undefined),-4.5,-1.9,-1.3,/,/,-1.6,-11.8%
O=C(CSc1nnc(SCc2ccc(Cl)cc2)s1)N1CCN(C(=O)c2ccco2)CC1,2.8,/,1.7,-1.5,-44.6,4.1,-3.6%&7.5%
CSc1sc2ccccc2[n+]1CCCS(=O)(=O)[O-],6.9,-7.9,0.1,6.1,3.0,3.5,15.1%
COc1ccc(/C=C2/C(=O)ON=C2C)cc1Br,6.8,2.9,-1.7,12.2,-0.7,-1.3,2.5%
Cc1[nH]nc(N=CC2=C(O)CC(C)(C)CC2=O)c1-c1ccc(Cl)cc1,-17.4,1.1,0.0&7.3,5.6,-0.9,-2.7,-0.7%
CCc1ccc(CCC(=O)Nc2ccc(OC)cc2)o1,11.0,31.2,4.8,2.0,-3.7,5.2,13.7%
CNC(=S)NNC(=O)COc1ccccc1C,-3.2,8.2,0.3,4.2,-2.1,8.5,-0.3%
Cc1ccc(N2C(=O)N(c3ccc(C)cc3)C3CS(=O)(=O)CC32)cc1 (centres undefined),35.3,/,1.4,0.8,-22.4,-2.4,-8.7%
O=C(O)c1c(Cl)cccc1Cl,-4.1,-4.8,4.1,/,/,+,/
COCCCNC(=O)CC(NCCCOC)C(=O)O (centres undefined),5.1,-0.5,-4.3,1.1,-14.6,12.1,-2.3%

(listing goes on)
smiles,B2AR ag,ALR H2O2 inh,HNF4A DNA FP,RanGTP-Impb inh,Calb FLC,LANA-H2B inh,Vif TR-FRET
NNc1ccc2nnc(C(F)(F)C(F)(F)C(F)(F)F)n2n1,-1.2,-5.7,6.2,-0.9,2.7,5.6,/
O=C(COc1ccc(Cl)cc1)Nc1cnn(Cc2c(Cl)cccc2Cl)c1,-4.5,4.7,-3.2,4.5,-0.3,-0.3,12.9%
CC1(C)OC2CC3C4CC=C5CC(O)CCC5(C)C4CCC3(C)C2(C(=O)CO)O1 (centres undefined),-0.1,/,-50.2,/,/,/,6.4%
CCOC(=O)c1ccc(COC(=O)c2cc(=O)[nH]c3ccccc23)o1,4.8,-10.4,-1.0,3.0,-1.5,2.5,4.7%
CCN1C(=O)/C(=C\c2cccs2)C(C(=O)OC)=C1C,-5.5,-1.8,1.2,1.8,-5.4,2.4,2.0%
COc1ccc2[nH]c(C(=O)N3CCN(C)CC3)c(C)c2c1,-3.2,-19.3,2.0,2.1,-0.2,2.4,-3.5%
O=C(NCCc1cccc(F)c1)C1CCCN(c2nc3ccccc3s2)C1 (centres undefined),-0.1,-4.1,-2.0,?,-5.0,-0.6,/
Cc1ccc(S(=O)(=O)N2CCOCC2)cc1C(=O)NC(=S)N1CC(C)CC(C)C1 (centres undefined),-9.7,/,1.2,3.6,-25.9,/,-4.2%
Cc1oc2cc(OCC(=O)O)ccc2c(=O)c1Oc1ccccc1,-3.5,-21.0,-0.2,4.5,16.4,1.8,-2.6%
N/C(=N\OC(=O)COc1ccccc1Cl)c1ccc(Cl)cc1,1.6,-1.7,-1.6,-1.3,-15.6,-6.1,1.0%
CCC(=O)N1N=C(c2cccs2)CC1c1ccc(OC)cc1 (centres undefined),-4.1,5.4,1.1,-0.2,-5.2,1.2,/
NS(=O)(=O)c1cccc(NC(=O)CSc2nc3nc(-c4cccs4)cc(C(F)(F)F)c3c(=O)[nH]2)c1,-10.5,/,-2.6,5.4,8.8,-2.7,-17.0%
COCCn1c(SCC(=O)Nc2nnc(C)s2)nnc1-c1ccncc1,2.6,/,0.4,1.4,9.7,/,-5.0%&-0.3%
O=C(Cn1nnc2ccccc21)c1cccc([N+](=O)[O-])c1,-5.4,-10.4,0.9,-1.8,4.8,-1.0,?
C=CC[C@H](CC(=O)NCCO)C(=O)N[C@H](COC(=O)[C@@H](CC=C)CC(=O)OC(C)(C)C)Cc1c[nH]c2ccccc12,9.3,-5.2,-2.7,/,/,-0.1,/
COc1ccccc1C1C(C(=O)NCc2ccccc2)=C(C)Nc2ncnn21 (centres undefined),3.3,3.2,-0.6,-3.2,1.9,-3.9,16.7%
COc1cc(/C=N\NC(=O)c2cccc(Cl)c2)ccc1Oc1ccc([N+](=O)[O-])cn1,9.2,-8.7,-2.0,4.1,-28.2,1.7,-2.7%
CC(C)(C)C1CCC(=NNC(=S)NCc2ccccc2)CC1 (centres undefined),-3.2,-0.1,-3.4,1.2,-1.4,-2.8,4.5%
COC(=O)N(NC(=O)C(O)(CCC(C)C)CCC(C)C)c1ccccc1,5.7,-4.8,4.3,2.8,1.5,0.8,/
Cc1cccc(NC(=O)c2nc[nH]c2C(=O)N2CCC(C)CC2)c1,-9.7,-8.7,0.1,/,/,-2.8,/
N#Cc1nc(-c2cccs2)oc1N1CCOCC1,-10.4,-0.7,2.7,1.9,6.7,0.3,20.8%
Cc1c(NC(=O)c2cc(CC(C)C)on2)c(=O)n(-c2ccccc2)n1C,11.7,/,3.0,1.9,-0.5,-0.1,-2.3%
CSc1ccc(NS(=O)(=O)c2ccc(-n3cnnn3)cc2)cc1,4.9,1.6,-2.5,0.0,-3.4,2.5,-6.6%
Cc1ccc2nc(Cl)c3nnnn3c2c1,87.2*,/,3.0,-4.5,96.8*,-0.6,0.9%
CCN(CC)c1ccc(C(=O)N/N=C(\C)c2cccc(OC)c2)cc1,1.7,/,1.4,-4.2,-1.3,-3.8,/

The list goes on:
smiles,B2AR ag,ALR H2O2 inh,HNF4A DNA FP,RanGTP-Impb inh,Calb FLC,LANA-H2B inh,Vif TR-FRET
Cc1occc1-c1nnc(SCC(=O)NC2(C#N)CCCC2)n1C,1.3,/,-2.1,/,/,/,2.5%
COc1ccc(S(=O)(=O)Nc2c(C(=O)O)[nH]c3ccc(OC)cc23)c(OC)c1,0.4,45.8,1.2,-0.8,/,-6.2,/
COc1ccc(C(=O)Nc2ccc(C(=O)NCCc3ccccc3)cc2)cc1,0.8,2.7,6.7,11.4,-10.0,0.1,3.6%
O=C(COC(=O)/C=C/c1nc2ccccc2s1)Nc1cccc(Cl)c1Cl,-0.5,16.8,1.6,2.4,-8.5,-7.5,/
CCn1c(N2CCN(S(=O)(=O)c3ccc(OC)cc3)CC2)nc2ccccc21,-10.1,-13.5,-0.7,-2.1,-6.0,5.1,-0.2%
CCN(CC)C(=O)c1ccc(CS(=O)(=O)c2ccc(OC)cc2)o1,9.7,8.3,0.0,0.4,-3.7,-3.3,>100µM*
CC(C)c1ccc(NC(=O)c2cccc(NC3=NC4CS(=O)(=O)CC4S3)c2)cc1 (centres undefined),-1.1,10.3,-2.8,1.6,-5.0,-2.0,/
CCC(=O)N1CCN(c2ccccc2NC(=O)c2ccc(OC)c(Cl)c2)CC1,-0.4,-13.4,-0.8,6.7,?,-2.2,?
COC(=O)[C@@]1(C)[C@H]2C(=O)N(C)C(=O)[C@H]2[C@H]2CN=C(SCc3ccccc3)N21,-9.0,/,-0.8,/,/,/,-13.1%
O=C(Cn1c(=O)[nH]c2ccsc2c1=O)N1CCN(c2ccc(F)cc2)CC1,/,42.2,/,9.7,-3.0,-5.5,?
Cc1cccc(N=C2NC(=O)/C(=C\c3cccs3)S2)c1,3.9,-1.6,-0.1,4.6,15.7,7.7,/
O=C(NC(=S)Nc1cc([N+](=O)[O-])ccc1O)C1CC1,9.3,22.0,-2.8,/,/,3.6,/
CC(C)C[C@H]1CN=C(Nc2ccccc2)N1CCCCc1ccccc1,15.6,-3.2,1.5,-0.5,-6.1,-4.7,/
CCC1CCCCN1C(=O)c1cc2cc(Br)ccc2oc1=O (centres undefined),-7.5,-8.1,5.6,2.3,5.2,1.4,12.5%
Cc1nc(-c2nnc(SCC(=O)Nc3cc(Cl)cc(Cl)c3)n2C)cs1,3.1,-2.4,2.3,1.4,4.6,-0.2,-20.6%
CCOC(=O)CSc1nc2sc3c(c2c(=O)n1-c1ccccc1)CCN(C)C3,12.6,99.6*,7.3,3.7,0.0,-0.1,/
O=C(NCCc1ccccc1)C(=O)N/N=C/c1ccccc1C(F)(F)F,8.3,-5.0,3.6,-0.6,?,4.9,3.0%
O=C(COC(=O)C1CCN(c2ccc(C(F)(F)F)cn2)CC1)NCCc1ccccc1,-4.1,-2.1,0.2,-2.8,3.2,0.5,-3.2%
Cc1nc2cc(N=NC3=C(O)CCCC3=O)ccc2s1,-11.6,-10.1,6.1,-10.3,14.1,6.9,1.28µM*
COc1cc(S(=O)(=O)N(Cc2cccc(OC)c2OC)CC2CCCO2)ccc1-n1cnnn1 (centres undefined),-0.3,/,-4.2,5.6,0.6,-3.5,/
Cc1cccc(OCc2nnc(SCC(=O)Nc3nccs3)o2)c1,-0.4,/,4.4,3.8,-1.3,-1.3,9.2%
O=C(Nc1cccc(Br)c1)c1ccc2c(c1)SC1=NS(=O)(=O)CCN12,1.3,-0.2,2.4,/,/,0.3,-47.0%
COc1ccc(C(=O)N[C@H](C(=O)Nc2sccc2C(N)=O)C(C)C)cc1,-5.4,13.4,-2.4,-1.9,1.4,3.3,/
COc1ccc(S(=O)(=O)N2CCN(Cc3ccc4c(c3)OCO4)CC2)cc1,14.1,1.2,3.7,-2.3,-6.9,3.4,/
O=C1CCC(C(=O)Nc2ccccc2N2CCOCC2)=NN1,8.7,18.9,-0.2,-0.7,-5.0,-4.9,-8.6%
